# FGF22 binding – binders of human FGF22 protein, primary screen, FGF22 synaptogenesis inhibitor project, biophysical, thermal shift, single point; Fibroblast growth factor 22 (Homo sapiens), Q9HCT0; recombinant FGF22 thermal shift, SYPRO orange fluorescence; percent of sucrose octasulfate shift, DMSO zero; calls only at 9.99 µM; actives 1.5% (n = 340,000); AID 651658, 2012;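 active means melting point raised past a set limit in the mean and every replicate; three in four hits are not shown here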
# Target sequence (Q9HCT0 whole entry, looked up): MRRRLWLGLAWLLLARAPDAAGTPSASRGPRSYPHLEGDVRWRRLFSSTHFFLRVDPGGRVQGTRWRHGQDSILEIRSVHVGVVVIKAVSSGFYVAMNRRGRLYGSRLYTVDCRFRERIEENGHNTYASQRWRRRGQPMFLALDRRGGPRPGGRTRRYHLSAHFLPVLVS
# Calls only; i = inactive. Not all compounds are listed; count on the stated rates, not on these rows.
SMILES,FGF22 binding
C[C@@H]1CN([C@@H](C)CO)C(=O)c2cc(C#C[C@@H](C)O)cnc2O[C@H]1CN(C)Cc1cccc(C(=O)O)c1,i
C[C@H](CO)N1C[C@H](C)[C@H](CN(C)Cc2ccccc2)Oc2ncc(C3=CCCCC3)cc2C1=O,i
CC(=O)Nc1ccc2c(c1)C(=O)N(C)[C@H]1CC[C@@H](CC(=O)NCc3ccc(Cl)cc3)O[C@@H]1CO2,i
C[C@@H]1CCCCO[C@@H](CN(C)C(=O)C2CCCCC2)[C@H](C)CN([C@H](C)CO)C(=O)c2cc(NS(=O)(=O)c3ccc(Cl)cc3)ccc2O1,i
C[C@H](CO)N1C[C@H](C)[C@H](CN(C)Cc2ccc(C(F)(F)F)cc2)Oc2c(NC(=O)NC3CCCCC3)cccc2C1=O,i
CCC(=O)N1CCCCN2[C@H](C1)[C@H](c1ccc(C#Cc3ccccc3)cc1)[C@@H]2CO,i
Cc1noc(C)c1NC(=O)Nc1ccc2c(c1)C(=O)N([C@@H](C)CO)C[C@@H](C)[C@H](CN(C)Cc1ccc(C(F)(F)F)cc1)OCCCC[C@@H](C)O2,i
CCC(=O)N1C[C@@H](C)[C@H](OC)CN(C)C(=O)c2ccc(NC(=O)C3CC3)cc2OC[C@H]1C,i
CC(=O)O[C@H]1C[C@@H](n2cnc3c(Cl)ncnc32)[C@@H]2OC(C)(C)O[C@@H]21,i
C[C@@H]1CN([C@H](C)CO)C(=O)c2cccc(NC(=O)C3CCOCC3)c2O[C@H]1CN(C)C(=O)Nc1ccc(F)cc1,i
COC(=O)C[C@@H]1C[C@H]2c3cc(NC(=O)NC4CCCC4)ccc3O[C@H]2[C@H](CO)O1,i
C[C@H](CO)N1C[C@H](C)[C@@H](CN(C)CC2CCCC2)Oc2ncc(-c3cccc(F)c3)cc2C1=O,i
CC(C)C#Cc1cnc2c(c1)C(=O)N([C@H](C)CO)C[C@@H](C)[C@@H](CN(C)S(=O)(=O)c1cn(C)cn1)O2,i
COc1ccc(S(=O)(=O)Nc2ccc3c(c2)C(=O)N([C@@H](C)CO)C[C@@H](C)[C@H](CN(C)C(=O)Nc2ccccc2)OCCCC[C@@H](C)O3)cc1,i
COc1ccc(S(=O)(=O)Nc2ccc3c(c2)C(=O)N([C@H](C)CO)C[C@@H](C)[C@@H](CN(C)S(C)(=O)=O)O3)cc1,i
Cc1noc(C)c1NC(=O)N(C)C[C@@H]1OCCCC[C@H](C)Oc2ccc(NC(=O)Nc3ccc(C(F)(F)F)cc3)cc2C(=O)N([C@@H](C)CO)C[C@H]1C,i
COc1ccccc1-c1ccccc1[C@H]1[C@@H](C#N)N(C(=O)C2CCC2)[C@H]1CO,i
CCCNC(=O)Nc1ccc2c(c1)OC[C@@H](C)N(Cc1cncnc1)C[C@@H](C)[C@H](OC)CN(C)C2=O,i
Cc1noc(C)c1NC(=O)N(C)C[C@@H]1Oc2ccc(NC(=O)Nc3ccc(F)cc3)cc2C(=O)N([C@@H](C)CO)C[C@H]1C,i
C[C@H]1CN([C@@H](C)CO)S(=O)(=O)c2ccc(C3=CCCCC3)cc2O[C@@H]1CN(C)S(=O)(=O)c1ccc(F)cc1,i
C/C=C/c1ccc2c(c1)O[C@H](CN(C)C(=O)CN(C)C)[C@H](C)CN([C@@H](C)CO)S2(=O)=O,i
C[C@@H]1CCCCO[C@H](CN(C)C(=O)c2ccncc2)[C@@H](C)CN([C@H](C)CO)C(=O)c2cc(NS(=O)(=O)c3ccccc3)ccc2O1,i
C[C@@H]1CN([C@@H](C)CO)C(=O)c2cccc(NC(=O)c3ccncc3)c2O[C@H]1CN(C)S(=O)(=O)c1cccs1,i
CC(C)NC(=O)Nc1cccc2c1O[C@@H](CN(C)C(=O)Nc1ccc3c(c1)OCO3)[C@@H](C)CN([C@@H](C)CO)C2=O,i
CCCN(C)C[C@H]1OCCCC[C@@H](C)Oc2ccc(NC(=O)c3ccncc3)cc2C(=O)N([C@H](C)CO)C[C@@H]1C,i
CCCNC(=O)C[C@H]1CC[C@@H]2[C@H](COc3ccc(NC(=O)CC)cc3C(=O)N2C)O1,i
C[C@@H]1CN([C@@H](C)CO)C(=O)c2cc(C3=CCCCC3)cnc2O[C@H]1CN(C)Cc1ccncc1,i
O=C(C[C@H]1C[C@H]2c3cc(NC(=O)C4CCOCC4)ccc3O[C@H]2[C@@H](CO)O1)NCc1ccc(Oc2ccccc2)cc1,i
COCc1cn(CC[C@@H]2CC[C@H](NC(=O)Nc3ccccc3)[C@@H](CO)O2)nn1,i
C[C@@H]1CN([C@@H](C)CO)S(=O)(=O)c2ccc(C#CC3CCCCC3)cc2O[C@H]1CN(C)C(=O)Cc1ccncc1,i
C[C@@H]1CN([C@H](C)CO)C(=O)Cc2cc(NC(=O)Nc3ccc(C(F)(F)F)cc3)ccc2O[C@@H]1CN(C)S(=O)(=O)c1ccccc1,i
C[C@@H]1CN([C@@H](C)CO)C(=O)CCCn2nncc2CO[C@H]1CN(C)C(=O)Nc1ccc(N2CCN(C)CC2)cc1,i
C[C@H]1CN([C@@H](C)CO)C(=O)c2cc(C#Cc3ccccn3)cnc2O[C@H]1CN(C)Cc1ccncc1,i
Cc1noc(C)c1NC(=O)Nc1ccc2c(c1)C(=O)N([C@H](C)CO)C[C@H](C)[C@H](CN(C)C(=O)NC(C)C)O2,i
COc1ccc(S(=O)(=O)Nc2ccc3c(c2)C(=O)N([C@@H](C)CO)C[C@@H](C)[C@@H](CN(C)Cc2ccncc2)O3)cc1,i
CCCC#Cc1cnc2c(c1)C(=O)N([C@H](C)CO)C[C@H](C)[C@H](CN(C)Cc1ccc(C(=O)O)cc1)O2,i
COc1ccc(NC(=O)Nc2ccc3c(c2)C(=O)N([C@H](C)CO)C[C@H](C)[C@@H](CN(C)S(=O)(=O)c2ccc(OC)cc2)OCCCC[C@H](C)O3)cc1,i
C[C@@H]1CN([C@@H](C)CO)C(=O)Cc2cc(NC(=O)CCN3CCOCC3)ccc2O[C@@H]1CN(C)C(=O)Nc1ccc(C(F)(F)F)cc1,i
COc1ccc(S(=O)(=O)N(C)C[C@@H]2OCCCC[C@H](C)Oc3ccc(NC(=O)Nc4c(C)noc4C)cc3C(=O)N([C@H](C)CO)C[C@@H]2C)cc1,i
COc1cccc(NC(=O)N2CC(=O)N3[C@H](CO)[C@@H](c4ccc(C#CC5CCCC5)cc4)[C@@H]3C2)c1,i
COc1ccc(CN(C)C[C@@H]2Oc3ccc(NC(=O)Nc4ccccc4)cc3C(=O)N([C@H](C)CO)C[C@H]2C)cc1,i
C[C@@H]1CN([C@H](C)CO)C(=O)c2cc(NS(=O)(=O)c3cn(C)cn3)ccc2O[C@H]1CN(C)Cc1ccc2c(c1)OCO2,i
CC(C)(O)C#Cc1cccc(-c2nc(C(=O)NCCCN3CCOCC3)cc3c2[C@@H](CCO)N(S(=O)C(C)(C)C)C3)c1 (stereo partly specified),i
COCC(=O)N1CCCCN2[C@H](CO)[C@H](c3ccc(C#Cc4ccc(OC)cc4)cc3)[C@H]2C1,i
CNC[C@@H]1Oc2ccc(NC(=O)Cc3ccccc3)cc2CC(=O)N([C@@H](C)CO)C[C@H]1C,i
COc1ccccc1NC(=O)N1C[C@@H](O)COC[C@@H]2O[C@@H](CC(=O)NCCc3ccccc3)CC[C@H]21,i
CCCNC(=O)N(C)C[C@H]1Oc2ncc(-c3ccccc3F)cc2C(=O)N([C@H](C)CO)C[C@@H]1C,i
CCCNC(=O)N[C@@H]1CC[C@H](CCn2cc(-c3cccc(F)c3)nn2)O[C@H]1CO,i
CC(C)C#Cc1ccc2c(c1)O[C@H](CN(C)C(=O)Nc1ccccc1)[C@@H](C)CN([C@@H](C)CO)S2(=O)=O,i
COc1ccc(NC(=O)Nc2ccc3c(c2)CC(=O)N([C@H](C)CO)C[C@@H](C)[C@@H](CN(C)Cc2ccc(C(=O)O)cc2)O3)cc1,i
O=C(Nc1ccccc1F)N[C@H]1CC[C@H](CCNS(=O)(=O)c2ccc(Cl)cc2)O[C@@H]1CO,i
COCC(=O)N1[C@@H]2c3ccc(C4=CCCCC4)c(=O)n3C[C@@H]2[C@@H](CO)[C@@H]1C(=O)N1CCCCC1,i
C[C@@H]1CCCCO[C@H](CN(C)S(=O)(=O)c2ccc(F)cc2)[C@@H](C)CN([C@@H](C)CO)C(=O)c2cc(NC(=O)CCC(F)(F)F)ccc2O1,i
CCC(=O)N(C)C[C@@H]1Oc2ncc(C#Cc3ccncc3)cc2C(=O)N([C@@H](C)CO)C[C@@H]1C,i
COc1ccc(NC(=O)N(C)C[C@@H]2Oc3c(NC(=O)c4nc5ccccc5s4)cccc3C(=O)N([C@H](C)CO)C[C@@H]2C)cc1,i
COCC(=O)Nc1ccc2c(c1)C(=O)N(C)C[C@H](OC)[C@@H](C)CN(C(=O)C1CCCC1)[C@@H](C)CO2,i
O=C(Cc1ccccc1)N1CC(=O)N2[C@H](CO)[C@@H](c3ccc(-c4ccc(F)cc4)cc3)[C@H]2C1,i
COc1ccc(CNC(=O)C[C@@H]2CC[C@@H](NC(=O)c3ccc4c(c3)OCO4)[C@H](CO)O2)cc1,i
CCCN(C)C[C@H]1Oc2cc(-c3ccc(C#N)cc3)ccc2S(=O)(=O)N([C@@H](C)CO)C[C@H]1C,i
COc1ccc(NC(=O)Nc2cccc3c2O[C@@H](CN(C)C(=O)NC(C)C)[C@@H](C)CN([C@@H](C)CO)C3=O)cc1,i

# 3 entries from above, as tab-separated lines.
Structure	FGF22 binding
COc1ccc(NC(=O)Nc2ccc3c(c2)CC(=O)N([C@H](C)CO)C[C@@H](C)[C@@H](CN(C)Cc2ccc(C(=O)O)cc2)O3)cc1	i
COc1ccc(NC(=O)N(C)C[C@@H]2Oc3c(NC(=O)c4nc5ccccc5s4)cccc3C(=O)N([C@H](C)CO)C[C@@H]2C)cc1	i
CCCN(C)C[C@H]1Oc2cc(-c3ccc(C#N)cc3)ccc2S(=O)(=O)N([C@@H](C)CO)C[C@H]1C	i

# More entries follow:
SMILES,FGF22 binding
O=C(Cc1ccccn1)NCC[C@@H]1CC[C@H](NS(=O)(=O)c2ccccc2)[C@@H](CO)O1,i
CC(=O)Nc1ccc2c(c1)C(=O)N(C)[C@@H]1CC[C@H](CC(=O)NCc3ccccc3)O[C@@H]1CO2,i
N#C[C@H]1[C@H](c2ccc(C#CC3CC3)cc2)[C@H](CO)N1C(=O)Cc1ccccn1,i
C/C=C/c1ccc([C@@H]2[C@@H](CN(C)C(=O)CN(C)C)N(C(C)=O)[C@H]2CO)cc1,i
COc1ccc(NC(=O)N2C[C@H](O)COC[C@@H]3O[C@@H](CC(=O)NCc4ccccc4OC)CC[C@H]32)cc1,i
COCC(=O)Nc1ccc2c(c1)C(=O)N(C)[C@@H]1CC[C@H](CC(=O)NCCCN(C)C)O[C@H]1CO2,i
C[C@H](CO)N1C[C@H](C)[C@H](CN(C)Cc2cncnc2)Oc2cc(C3=CCCC3)ccc2S1(=O)=O,i
CNC[C@@H]1Oc2cc(C#C[C@H](C)O)ccc2S(=O)(=O)N([C@@H](C)CO)C[C@@H]1C,i
C[C@@H]1CN([C@@H](C)CO)C(=O)c2cccc(NS(=O)(=O)c3ccccc3)c2O[C@H]1CN(C)Cc1ccc(C(=O)O)cc1,i
CCC(=O)N1C[C@@H]2[C@H](c3ccccc31)[C@H](CO)N2Cc1ccc(F)cc1,i
C[C@@H]1CCCCO[C@@H](CN(C)C(=O)Nc2cccc3ccccc23)[C@H](C)CN([C@@H](C)CO)C(=O)c2cc(NC(=O)c3ccccc3)ccc2O1,i
C[C@@H]1CN([C@H](C)CO)C(=O)c2cc(Br)cnc2O[C@H]1CN(C)Cc1ccccc1F,i
C[C@@H]1CN([C@@H](C)CO)C(=O)c2cccc(NC(=O)c3nc4ccccc4s3)c2O[C@@H]1CN(C)S(C)(=O)=O,i
CO[C@H]1CN(C)C(=O)c2cc(NC(=O)Nc3ccccc3F)ccc2OC[C@H](C)N(C)C[C@H]1C,i
Cc1ccc(-c2ccc([C@H]3[C@H](CO)N4CCCCN(S(=O)(=O)c5cccc(C)c5)C[C@@H]34)cc2)cc1,i

# 5 of the compounds above, as tab-separated lines.
smiles	FGF22 binding
COC(=O)C[C@@H]1C[C@H]2c3cc(NC(=O)NC4CCCC4)ccc3O[C@H]2[C@H](CO)O1	i
C[C@H]1CN([C@@H](C)CO)S(=O)(=O)c2ccc(C3=CCCCC3)cc2O[C@@H]1CN(C)S(=O)(=O)c1ccc(F)cc1	i
CC(=O)Nc1ccc2c(c1)C(=O)N(C)[C@H]1CC[C@@H](CC(=O)NCc3ccc(Cl)cc3)O[C@@H]1CO2	i
C[C@@H]1CN([C@H](C)CO)C(=O)Cc2cc(NC(=O)Nc3ccc(C(F)(F)F)cc3)ccc2O[C@@H]1CN(C)S(=O)(=O)c1ccccc1	i
COc1ccc(NC(=O)Nc2ccc3c(c2)CC(=O)N([C@H](C)CO)C[C@@H](C)[C@@H](CN(C)Cc2ccc(C(=O)O)cc2)O3)cc1	i

# Continued:
SMILES,FGF22 binding
C[C@@H]1CCCCO[C@@H](CN(C)C(=O)Cc2ccccc2)[C@H](C)CN([C@H](C)CO)C(=O)c2cc(NS(=O)(=O)c3ccc(Cl)cc3)ccc2O1,i
COc1ccc(S(=O)(=O)Nc2ccc3c(c2)CC(=O)N([C@@H](C)CO)C[C@@H](C)[C@H](CN(C)C(=O)Nc2c(C)noc2C)O3)cc1,i
C[C@H](CO)N1C[C@H](C)[C@H](CN(C)S(C)(=O)=O)Oc2ncc(-c3cc4ccccc4o3)cc2C1=O,i
COc1cccc(-c2ccc3c(c2)[C@H]2[C@H](CCN2C(=O)Cc2ccccc2)[C@@H](CO)N3)c1,i
CC(C)CC#Cc1ccc([C@H]2[C@H]3CN(C(=O)c4cccc(F)c4)CC(=O)N3[C@H]2CO)cc1,i
COc1ccc(S(=O)(=O)N(C)C[C@@H]2OCCCC[C@@H](C)Oc3ccc(NS(=O)(=O)c4ccc(F)cc4)cc3C(=O)N([C@@H](C)CO)C[C@@H]2C)cc1,i
